Sa RN4220 lethal – S. aureus RN4220 growth inhibition. OD600, 16 h. inhibition, % (concentration not given with the values). hit rate 0.33% among 330,000. AID 1259311;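 active = z-score of -3 or lower and OD600 up to 0.18 on both plates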;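 note: plate controls were untreated cells for no effect and reference antibiotic for full effect; stock transfer was 100 nL into about 80 µL; one replicate is shown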
PrP 5UTR inh – inhibition of PrP 5' UTR reporter expression. hit rate 0.35% among 340,000. cell-based PrP 5' UTR mRNA reporter, plate reader. inhibition, % (no concentration beside the values);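 active = every replicate at 50% or more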;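 note: 0 = median of the neutral control wells; tested in H4 reporter cells; numbers are from one replicate; inactives centre near -14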
Mtb hypoxia rep – Mtb hypoxia fluorescent reporter inhibition | M. tuberculosis hypoxia-regulated fluorescent reporter, fluorescence | fluorescence inhibition, % (test concentration not listed) | hit rate 0.1% among 300,000 | AID 1159583;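 active = 35 to 45% if threefold the growth effect, above 45% if 1.5-fold the growth effect; inactive = the rest, general growth blockers included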;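 note: wells of about 50 µL received 100 nL stock; 0% = vehicle wells and 100% = reference inhibitor wells; whole bacteria with a GFP reporter of the hypoxia response; strong numbers were not always called active; many hits fall short of the cut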
ugtP null kill – compounds lethal to S. aureus RN4220 ugtP deletion mutant; OD600 growth, 16 h; some inactives read as strong as hits; growth inhibition, % (test concentration not listed); hit rate 0.54% among 330,000;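 active = z-score under -3 and OD600 up to 0.15 on both plates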;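 note: plate controls were untreated wells for no effect and antibiotic for full effect; wells of about 80 µL received 100 nL stock; the first replicate is given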
BJeLR lethal – BJeLR cell viability loss; BJeLR (HRASV12) viability, CellTiter-Glo ATP luminescence, 48 h; reference of the scale not given here; hit rate 0.17% among 300,000; inhibition, % (concentration not given with the values);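 active = replicate mean above 50%; inconclusive = above 50% but judged a plate artefact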;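 note: 50 nL library stock added to about 25 µL; numbers are from one replicate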
Autofluor counter – compound fluorescence in toxin protease inhibitor counterscreen. hit rate 3.1% among 360,000. compound autofluorescence counterscreen, microsphere flow cytometry; hits give high values. fluorescence intensity (no concentration beside the values);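 active = at least 3 SD above the mean of all compounds, about 16000 in these data; inconclusive = too few beads counted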;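 note: 100 nL of 1 mM stock went into each well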
Mtb hypoxia rep growth – further read-out of Mtb hypoxia rep, marked with its call; growth inhibition, %; measured here: M. tuberculosis growth (absorbance);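 0% = vehicle and 100% = reference antibiotic; read after six days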
Active calls of the source: *.

Screening C=CC1CN2CCC1CC2[C@@H](OC(=O)c1ccc(OC)cc1)c1ccnc2ccccc12 (stereo partly drawn) returned Sa RN4220 lethal 15, PrP 5UTR inh -8, Mtb hypoxia rep -9, ugtP null kill 9, BJeLR lethal -2, Autofluor counter 2068 and Mtb hypoxia rep growth 6.
CC(C)=CCC[C@](C)(OC1OC(COC2OCC(O)C(O)C2O)C(O)C(O)C1O)C1CC[C@]2(C)C1C(O)CC1[C@@]3(C)CCC(OC4OC(CO)C(O)C(O)C4O)C(C)(C)C3CC[C@]12C (stereo partly drawn) was read as Sa RN4220 lethal -1.2, Mtb hypoxia rep 6, ugtP null kill -4 and Mtb hypoxia rep growth 8.
`CCOc1ccc(S(=O)(=O)N2CC(=O)Nc3ccccc32)cc1` gave Sa RN4220 lethal 5.4, PrP 5UTR inh -20, Mtb hypoxia rep 13, ugtP null kill 4, BJeLR lethal 8, Autofluor counter 3819 and Mtb hypoxia rep growth 4.
`Cc1noc(NS(=O)(=O)c2ccc(NC(=O)c3cc(-c4ccccc4Cl)nc4ccccc34)cc2)c1C` gave Sa RN4220 lethal 4.9, PrP 5UTR inh -12, Mtb hypoxia rep 8, ugtP null kill 16, BJeLR lethal 1, Autofluor counter 4346 and Mtb hypoxia rep growth 16.
For CC(=O)c1c(C)[nH]c(C(=O)Nc2cc(F)ccc2C)c1C the results were Sa RN4220 lethal 2.9, PrP 5UTR inh -16, Mtb hypoxia rep -5, ugtP null kill 2, BJeLR lethal -7, Autofluor counter 3689 and Mtb hypoxia rep growth 4.
Screening CCc1ccc(N2C(=O)NC(=O)/C(=C/c3cccn3CCOc3ccc(C(C)CC)cc3)C2=O)cc1 (stereo not drawn) returned Sa RN4220 lethal -2.8, PrP 5UTR inh -52, Mtb hypoxia rep 9, ugtP null kill 6, BJeLR lethal 5, Autofluor counter 2222 and Mtb hypoxia rep growth 8.
For Cc1cc(NC(=O)CSc2nnc(CNC(=O)c3ccc(C(C)(C)C)cc3)o2)no1 the results were Sa RN4220 lethal -3.7, PrP 5UTR inh -18, Mtb hypoxia rep 9, ugtP null kill -13, BJeLR lethal -2, Autofluor counter 6589 and Mtb hypoxia rep growth 11.
Screening CC1CCCCN1C(=O)c1c([N+](=O)[O-])cnn1C (stereo not drawn) returned Sa RN4220 lethal 0.8, PrP 5UTR inh -20, Mtb hypoxia rep 13, ugtP null kill 11, BJeLR lethal 3, Autofluor counter 5359 and Mtb hypoxia rep growth 2.
For COc1ccc(N2CCN(S(=O)(=O)c3cccc4cccnc34)CC2)cc1 the results were Sa RN4220 lethal 3.2, PrP 5UTR inh -26, ugtP null kill 8, BJeLR lethal -4 and Autofluor counter 5286.
For Cc1ccc(N(C(=O)CNC(=O)c2ccco2)C(C(=O)NC2CCCC2)c2ccncc2)cc1C (stereo not drawn) the results were Sa RN4220 lethal 5.4, PrP 5UTR inh -43, Mtb hypoxia rep -12, ugtP null kill 6, BJeLR lethal -10, Autofluor counter 4246 and Mtb hypoxia rep growth 3.
Screening O=C(Nc1ccc(F)c(F)c1)c1ccco1 returned Sa RN4220 lethal 6.1, PrP 5UTR inh -21, Mtb hypoxia rep 13, ugtP null kill 6, BJeLR lethal -16, Autofluor counter 4376 and Mtb hypoxia rep growth 5.
For CCOC(=O)/C(=N\Nc1ncnc2ccccc12)c1ccc(OC)cc1 the results were PrP 5UTR inh -120, BJeLR lethal 13 and Autofluor counter 5750.
CCOc1ccc(-c2nnc(NC(=O)CCCOc3cccc(C)c3)o2)cc1 was read as Sa RN4220 lethal -1.1, PrP 5UTR inh -21, Mtb hypoxia rep 5, ugtP null kill 26, BJeLR lethal -9, Autofluor counter 9469 and Mtb hypoxia rep growth 4.
`Cc1ccc(N=Nc2c(=O)[nH]n3c(=O)cc(C)[nH]c23)cc1` gave Sa RN4220 lethal -4.4, PrP 5UTR inh -15, Mtb hypoxia rep 16, ugtP null kill 2, BJeLR lethal 0, Autofluor counter 3250 and Mtb hypoxia rep growth 2.
Screening C/C=C(\C)C(=O)OC(C)(C)[C@@H]1Cc2cc3ccc(=O)oc3cc2O1 returned Sa RN4220 lethal -4.0, PrP 5UTR inh 6, Mtb hypoxia rep 5, ugtP null kill -12, Autofluor counter 3570 and Mtb hypoxia rep growth 6.

3 entries drawn at random from the list so far, as already listed:
For CCOC(=O)/C(=N\Nc1ncnc2ccccc12)c1ccc(OC)cc1 the results were PrP 5UTR inh -120, BJeLR lethal 13 and Autofluor counter 5750.
For COc1ccc(N2CCN(S(=O)(=O)c3cccc4cccnc34)CC2)cc1 the results were Sa RN4220 lethal 3.2, PrP 5UTR inh -26, ugtP null kill 8, BJeLR lethal -4 and Autofluor counter 5286.
CC(C)=CCC[C@](C)(OC1OC(COC2OCC(O)C(O)C2O)C(O)C(O)C1O)C1CC[C@]2(C)C1C(O)CC1[C@@]3(C)CCC(OC4OC(CO)C(O)C(O)C4O)C(C)(C)C3CC[C@]12C (stereo partly drawn) was read as Sa RN4220 lethal -1.2, Mtb hypoxia rep 6, ugtP null kill -4 and Mtb hypoxia rep growth 8.

Further entries follow.
For CNC(=S)N1CCN(c2nc(-c3ccc(Cl)cc3)cs2)CC1 the results were Sa RN4220 lethal -14, PrP 5UTR inh -8, Mtb hypoxia rep -6, ugtP null kill -8, BJeLR lethal 8 and Mtb hypoxia rep growth -17.
For CC1(C)C(=O)Nc2ccccc2N1C(=O)COC(=O)Cc1ccccc1F the results were Sa RN4220 lethal 2.9, PrP 5UTR inh 3, Mtb hypoxia rep 1, ugtP null kill -1, Autofluor counter 3682 and Mtb hypoxia rep growth 4.
`Cc1ccc(S(=O)(=O)N(C)C)cc1NC(=O)C(C)OC(=O)C1CCCC1` (stereo not drawn) gave Sa RN4220 lethal 0.9, PrP 5UTR inh -14, Mtb hypoxia rep -8, ugtP null kill 1, BJeLR lethal 1, Autofluor counter inconclusive and Mtb hypoxia rep growth 0.
For C=CCn1c(SCc2nc3ccccc3[nH]2)nnc1-c1ccccn1 the results were Sa RN4220 lethal 2.0, PrP 5UTR inh -5, Mtb hypoxia rep 7, ugtP null kill -1, BJeLR lethal -4, Autofluor counter 18300* and Mtb hypoxia rep growth 12.
For Cc1cccc2sc(NC(=O)CN(C)S(=O)(=O)c3ccc(Br)s3)nc12 the results were Sa RN4220 lethal -3.7, PrP 5UTR inh 6, ugtP null kill -25, BJeLR lethal -5 and Autofluor counter 4177.
Cc1ccc(C(=NNc2nc3ccccc3s2)C2=C(O)c3ccccc3C2=O)cc1 was read as Sa RN4220 lethal 6.0, Mtb hypoxia rep 20, ugtP null kill 3 and Mtb hypoxia rep growth 4.
Screening CCOc1ccccc1C(=O)N(Cc1sccc1C)C1CCS(=O)(=O)C1 (stereo not drawn) returned Sa RN4220 lethal -0.2, PrP 5UTR inh -16, Mtb hypoxia rep 1, ugtP null kill 0, BJeLR lethal 1, Autofluor counter 4945 and Mtb hypoxia rep growth 2.
For Cc1ccc(S(=O)(=O)Nc2ccc3nc(C)sc3c2)c(C)c1 the results were Sa RN4220 lethal 3.4, PrP 5UTR inh -15, Mtb hypoxia rep 3, ugtP null kill -1, Autofluor counter 3818 and Mtb hypoxia rep growth 4.
CCOc1ccc(N2C(=O)C3C(c4ccc(OC)cc4OC)NC(CCSC)(C(=O)OC)C3C2=O)cc1 (stereo not drawn) was read as PrP 5UTR inh -17, BJeLR lethal -3 and Autofluor counter 3923.
`COC(=O)C[C@H]1c2cc(F)ccc2S(=O)(=O)N1c1ccccc1` gave PrP 5UTR inh -26, BJeLR lethal 4 and Autofluor counter 3087.
`CC(C)C1C(C#N)=C(N)Oc2n[nH]c(-c3cccs3)c21` (stereo not drawn) gave Sa RN4220 lethal 5.1, PrP 5UTR inh -20, Mtb hypoxia rep 14, ugtP null kill 10, BJeLR lethal 4, Autofluor counter 3765 and Mtb hypoxia rep growth 10.
`COc1ccc(S(=O)(=O)Nc2cccc3c2O[C@H](CN(C)Cc2ccc(C(=O)O)cc2)[C@@H](C)CN([C@H](C)CO)C3=O)cc1` gave Sa RN4220 lethal 2.9, PrP 5UTR inh -16, Mtb hypoxia rep -2, ugtP null kill 2, Autofluor counter 3432 and Mtb hypoxia rep growth 3.
`COc1ccc(C2=C/C(=C\c3ccccc3OC(C)=O)C(=O)O2)cc1` gave Sa RN4220 lethal 5.4, PrP 5UTR inh -25, Mtb hypoxia rep 4, ugtP null kill -3, BJeLR lethal -6, Autofluor counter 3950 and Mtb hypoxia rep growth -1.
`COc1ccc(NC(=O)Cn2nc(Cc3cccnc3)c3ccccc3c2=O)c(OC)c1` gave Sa RN4220 lethal 2.2, PrP 5UTR inh -11, Mtb hypoxia rep -5, ugtP null kill -2, BJeLR lethal 3, Autofluor counter 5115 and Mtb hypoxia rep growth 0.
Screening Cc1nc(CSc2nnc(C)s2)cs1 returned PrP 5UTR inh -12, BJeLR lethal -6 and Autofluor counter 2567.
Screening COc1ccc(CNC(=O)c2ccc(N(C)S(=O)(=O)c3ccc(C)cc3)cc2)cc1 returned Sa RN4220 lethal -10, PrP 5UTR inh 0, Mtb hypoxia rep -3, ugtP null kill -7, BJeLR lethal -16, Autofluor counter 4519 and Mtb hypoxia rep growth -2.
For CC(=O)N1c2ccc(S(=O)(=O)N3CCCC3)cc2CC1C(=O)NC(C)C (stereo not drawn) the results were Sa RN4220 lethal 6.7, PrP 5UTR inh 8, Mtb hypoxia rep -2, ugtP null kill 13, BJeLR lethal -7, Autofluor counter 5052 and Mtb hypoxia rep growth 3.
CCC(=O)Nc1nnc(C(C)(C)C)s1 was read as Sa RN4220 lethal 2.9, PrP 5UTR inh 2, Mtb hypoxia rep 4, ugtP null kill 0, BJeLR lethal -3, Autofluor counter 4584 and Mtb hypoxia rep growth 16.
`COc1cccc(Cn2cc(C)cc(NC(=O)NCc3ccccc3)c2=O)c1` gave Sa RN4220 lethal 2.6, PrP 5UTR inh -27, Mtb hypoxia rep 9, ugtP null kill 5, BJeLR lethal 1, Autofluor counter 4096 and Mtb hypoxia rep growth 4.
Screening Cn1cnc(S(=O)(=O)NCc2cccs2)c1 returned Sa RN4220 lethal 1.6, PrP 5UTR inh -6, ugtP null kill 1, BJeLR lethal -1 and Autofluor counter 2953.
For CC(=O)c1cccc(NC(=O)C(OC(=O)c2cccc(S(=O)(=O)N(C)c3ccccc3)c2)c2ccccc2)c1 (stereo not drawn) the results were Sa RN4220 lethal -0.4, PrP 5UTR inh -6, Mtb hypoxia rep 5, ugtP null kill 37, BJeLR lethal -4, Autofluor counter 7946 and Mtb hypoxia rep growth 3.
For Cc1ccc(CSCC(=O)NN=Cc2sccc2C)cc1 the results were Sa RN4220 lethal 0.9, Mtb hypoxia rep 2, ugtP null kill -3 and Mtb hypoxia rep growth 1.
`COc1ccc(-c2c(C#N)c(SCC(N)=O)nc3c2CCCC3)cc1` gave Sa RN4220 lethal 0.9, PrP 5UTR inh -8, Mtb hypoxia rep 9, ugtP null kill 18, BJeLR lethal 4, Autofluor counter 3342 and Mtb hypoxia rep growth 6.
O=C(CSc1nc(-c2ccccc2)nc2ccccc12)Nc1nccs1 was read as Sa RN4220 lethal 1.9, PrP 5UTR inh -18, Mtb hypoxia rep 5, ugtP null kill -10, BJeLR lethal -17, Autofluor counter 10101 and Mtb hypoxia rep growth 0.
CC1(C)Cc2ccccc2/C(=C/C(=O)N2CCCCCC2)N1 was read as Sa RN4220 lethal 5.6, PrP 5UTR inh -30, Mtb hypoxia rep 1, ugtP null kill 17, BJeLR lethal -2, Autofluor counter 9205 and Mtb hypoxia rep growth 5.
CC(C)c1ccc(N2C(=O)CC(NNC(=O)c3ccccc3Cl)C2=O)cc1 (stereo not drawn) was read as Sa RN4220 lethal 0.2, PrP 5UTR inh -25, Mtb hypoxia rep 6, ugtP null kill 6, BJeLR lethal -5, Autofluor counter 4272 and Mtb hypoxia rep growth -1.
`CC1/C(=N/O)CC(c2ccccc2)NC1c1ccccc1` (stereo not drawn) gave PrP 5UTR inh -12, BJeLR lethal -5 and Autofluor counter 7821.
For CC(C)(C)NC(=O)C1(N2C(=O)c3ccccc3C2=O)CCCC1 the results were Sa RN4220 lethal 4.5, PrP 5UTR inh -8, Mtb hypoxia rep 4, ugtP null kill 4, Autofluor counter 2953 and Mtb hypoxia rep growth 2.
`COc1ccc(CCNC(=O)CCC(=O)Nc2nnc(C(C)C)s2)cc1OC` gave Sa RN4220 lethal -2.8, PrP 5UTR inh -21, Mtb hypoxia rep -11, ugtP null kill 2, BJeLR lethal -9, Autofluor counter 2601 and Mtb hypoxia rep growth 2.

Bioassay records: PubChem, several laboratories
